Screens: PubChem BioAssay, ICCB-Longwood Screening Facility, Harvard Medical School
Choline anaer gr: blocks anaerobic gram-negative growth on choline | Gram-negative bacterium anaerobic choline minimal medium, absorbance growth; active compounds read low; many inactives read as strong as hits in the columns shown | calls only | 0.2% of 55,000 active;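 active = growth z-score on choline under -2 at 7 or 20 h with little or no fall on glycerol, limits in tiers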;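 also: stock transfer was 300 nL into about 50 µL; the organism is E. coli; final concentration not given here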
Choline anaer gr early: further read-out of Choline anaer gr, marked with its call; z-score; measured here: choline growth z-score, timepoint 1;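 score of optical density at 7 h as mean of two plates; lower means less growth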
The depositor's hits bear a star; i = inactive; & = joins results of further samples.

The line under a structure holds: Choline anaer gr, Choline anaer gr early
1: Cc1sc(-c2nc(C(C)C)cs2)cc1S(=O)(=O)NC1CCCC1
 : i, 1.91
2: O=C(CCC(=O)N1CCSc2ccccc21)NCc1ccccc1Cl
 : i, 0.51
3: Cn1nnc2cc(-c3noc(COc4ccc(Cl)cc4)n3)ccc21
 : i, 0.73
4: CCOc1ccc(-c2csc(Cc3nc(-c4cccc(Cl)c4)no3)n2)cc1
 : i, 1.8
5: C#CCn1cnc2c(cnn2-c2ccc(Cl)cc2)c1=O
 : i, 1.03
6: CC(C)c1ccc(Cn2c(=O)c3sccc3n3c(=O)[nH]nc23)cc1
 : i, 0.08
7: O=S(=O)(NCCn1c(CCc2ccccc2)nc2ccccc21)c1cccc(Cl)c1
 : i, 1.16
8: Cn1c(C2CCN(C(=O)c3ccc(C(F)(F)F)s3)C2)nc2cccnc21 (stereo not given)
 : i, 0.18
9: CCOC(=O)c1c(NC(C)=O)c2c3c(sc2n1Cc1ccccc1C)CCCC3
 : i, -0.64
10: COC(=O)c1c(-c2cccc(F)c2)noc1NC1CCS(=O)(=O)C1 (stereo not given)
 : i, -1.16
11: Cc1ccc(-c2ccc(OCCNS(=O)(=O)N(C)C)nn2)cc1
 : i, -0.17
12: Cc1cc2n(n1)CCC(=O)N2C(C)C(=O)N(C)Cc1ccccc1 (stereo not given)
 : i, -0.89
13: CCOC(=O)c1c(-c2ccccc2)csc1NC(=O)c1snnc1C
 : i, 2.03
14: CCn1c(=O)c2c(C(=O)Nc3cccc(Cl)c3)cc(=O)n(CC)c2n(C)c1=O
 : i, 1.15
15: Cc1ccc(-n2nc(C(=O)N3CCN(c4ccccn4)CC3)c(=O)n(C)c2=O)cc1
 : i, -1.2
16: Cc1csc(-c2cc(S(=O)(=O)NC3CC3)cn2CC(=O)N2CCCCC2)n1
 : i, -0.45
17: Cc1ccc(Sc2nccnc2SCC(=O)NCCC2=CCCCC2)cc1
 : i, -0.11
18: CCSc1nc2sc3c(c2c(=O)n1-c1ccc(C)cc1)CC(C)(C)OC3
 : i, -2.13
19: Cc1cccn2c(=O)c(C(=O)NCC3CCCO3)cnc12 (stereo not given)
 : i, 1.37
20: Clc1ccc(-c2cc(-c3nc(-c4ccc(Br)cc4)no3)[nH]n2)cc1
 : i, -0.68
21: Cc1ccc(CN2CCN(C3CCN(S(=O)(=O)c4ccc(F)cc4)CC3)C(=O)C2=O)cc1
 : i, -0.63
22: CCC(=O)Nc1ccc2c(c1)NC(=O)C(C)O2 (stereo not given)
 : i, -0.22
23: CC(C)(C)c1ccc(C(=O)Nc2c(-c3ccccc3)nc3sccn23)cc1
 : i, 0.09
24: Cc1sc(-c2noc(C3CCC3)n2)cc1S(=O)(=O)N1CCC(C(=O)N2CCCCC2)CC1
 : i, -0.63
25: CCOC(=O)c1[nH]c(C)c(CN(Cc2ccc(Cl)cc2)C(=O)c2cc3ccccc3[nH]2)c1C
 : i, 0.76
26: CCc1noc(-c2ccc(NC(=O)C3CC(=O)N(C(C)C)C3)cc2)n1 (stereo not given)
 : i, -0.45
27: CC1CCN(Cc2c(NC(=O)c3ccco3)sc3c2CCCC3)CC1
 : i, -0.33
28: O=C(NCCNCC(O)COc1ccc(O)cc1)N1CCOCC1 (stereo not given)
 : i, 1.16&0.64&0.89
29: O=C(Nc1cnc(N2CCN(c3ccc(F)cc3)CC2)c(C(=O)O)c1)c1ccccc1Cl
 : i, 0.42
30: CCCCNC(=O)c1ccc2c(c1)CCCN2C(=O)c1ccccc1
 : i, -0.7

3 entries already listed, sorted by molar mass, smallest number first:
The line under a structure holds: Choline anaer gr, Choline anaer gr early
19: Cc1cccn2c(=O)c(C(=O)NCC3CCCO3)cnc12 (stereo not given)
 : i, 1.37
23: CC(C)(C)c1ccc(C(=O)Nc2c(-c3ccccc3)nc3sccn23)cc1
 : i, 0.09
25: CCOC(=O)c1[nH]c(C)c(CN(Cc2ccc(Cl)cc2)C(=O)c2cc3ccccc3[nH]2)c1C
 : i, 0.76

(further entries)
The line under a structure holds: Choline anaer gr, Choline anaer gr early
31: CCc1c(C)nc2ncnn2c1Nc1ccc(C)c(Cl)c1
 : i, 1.04
32: Cc1cc(C(=O)Nc2ccc(F)cc2F)no1
 : i, -1.24
33: CCCCN(CC)S(=O)(=O)c1cc(-c2nnc(C)o2)co1
 : i, 0.06
34: CC(C)CCNC(=O)CCCCn1c(=O)c2ccccc2n(CC(=O)Nc2ccc(F)c(Cl)c2)c1=O
 : i, -0.3
35: Nc1nc(-c2ccc(Cl)cc2)nn1C(=O)Cc1ccc(Cl)cc1
 : i, 3.31
36: Cc1ccc(Cn2nc3c(S(=O)(=O)N4CCN(c5ccc(F)cc5)CC4)cccn3c2=O)c(C)c1
 : i, 0.35
37: COc1ccc2c(c1)c(CN1CCC(C(=O)NCCN3CCCC3)CC1)cn2C
 : i, -1.11
38: Cc1cccc(NC(c2ccsc2)c2c(NC(=O)c3ccccc3)sc3c2CCCC3)n1 (stereo not given)
 : i, 0.61
39: COc1ccc(CCNS(=O)(=O)c2cc(-c3cc(C)no3)cs2)cc1OC
 : i, -0.19
40: CC(C)Cn1c(=O)c2sccc2n2c(CCC(=O)NCCc3c[nH]c4ccccc34)nnc12
 : i, 0.17
41: Cc1ccc(C)c(C2CC(=O)Nc3c2c(C)nn3-c2ccc3nnc(C)n3n2)c1 (stereo not given)
 : i, -0.51
42: Cc1nn2c3c(cnc2c1-c1ccc(F)cc1)C(=O)CC(c1ccc(F)cc1)C3 (stereo not given)
 : i, -1.42
43: Cc1ccc(Nc2c(C(=O)NC3CCCCC3)cnc3c2c(C)nn3C)cc1
 : i, -0.13
44: CN1CCCN(c2ncnc3c2CCC3)CC1
 : i, -2.43
45: COc1ccc2cc3c(nc2c1)N(C(=O)C(C)C)CC3
 : i, 0.75
46: O=C(C1CCN(S(=O)(=O)Cc2ccc(F)cc2)CC1)N1CCOCC1
 : i, 0.1
47: CCOC(=O)C(CCc1ccccc1)NC(C)C(=O)N1CCCC1C(=O)O (stereo not given)
 : i, -0.23
48: Cn1c(=O)oc2cc(NC(=O)C3CC3)ccc21
 : i, -0.99
49: COc1cc2c(cc1OC)C(c1ccccc1)CC(=O)N2 (stereo not given)
 : i, -1.74
50: CCOCCCn1c(SCC)nc2c(-c3ccccc3)cn(C)c2c1=O
 : i, 0.29
51: O=C(Cc1csc(NC(=O)Nc2ccccc2)n1)Nc1cc(F)ccc1F
 : i, -0.52
52: COc1ccc(C2CC(=O)N(c3ccc(C)cc3C)C(=O)C2)cc1
 : i, 0.69
53: O=C(Nc1ccccc1Cl)N1CCN(Cc2cc(=O)n3nc(-c4ccccc4F)sc3n2)CC1
 : i, 0.29
54: O=C(COc1ncnc2onc(-c3ccccc3)c12)NCc1cccc(Br)c1
 : i, 0.98
55: Cc1nn(-c2ccc3nnc(C)n3n2)c2c1C(c1ccccc1OCc1cccc(F)c1)CC(=O)N2 (stereo not given)
 : i, 0.03
56: Fc1ccc(-c2nc3n(n2)C2(CCCCC2)[C@@H]2CCCC[C@@H]2N3)cc1
 : i, 0.64
57: Cc1cc(=O)[nH]c(-n2nc(C)cc2NC(=O)CSCc2ccccc2)n1
 : i, -0.06
58: COc1ccc(C2=C(C)C(N3CCC(C(=O)N4CCc5ccccc5C4)CC3)=NS2(=O)=O)cc1
 : i, -0.91
59: Cc1ccc(Cl)cc1NC(=O)NCC(c1ccccc1)c1cn(C)c2ccccc12 (stereo not given)
 : i, 0.47
60: COc1ccc(C2CC(=O)C3=C(C2)Nc2onc(C)c2C3c2cccc(C)c2)cc1 (stereo not given)
 : i, 0.76
61: Fc1ccc(-c2noc(-c3ccc(N4CCOCC4)nc3)n2)cc1
 : i, -1.77
62: COC(=O)c1sccc1NC(=O)c1cc2c(COC(=O)C(C)C)cnc(C)c2oc1=O
 : i, 0.09
63: Cc1ccc(NC(=O)c2sc3nc[nH]c(=O)c3c2C)cc1F
 : i, 0.32
64: O=S(=O)(NCc1cccs1)c1cc(-c2noc(C3CCC3)n2)cs1
 : i, -0.21
65: O=C(NCCCn1c(-c2ccncc2)nc2cccnc21)Nc1cccc(Cl)c1
 : i, -0.66
66: Cc1cccc(NC(=O)NCCc2csc(C)c2C)c1
 : i, 0.46
67: Cn1nc(-c2ccc(Cl)cc2)c2cc(C(=O)Nc3ccc(Br)cc3F)sc21
 : i, 0.02
68: CCOc1ccc(NC(=O)Cn2cc(-c3nnc(CN4CCCCC4)o3)c3ccccc32)cc1
 : i, -0.24
69: COC(=O)c1ccc(Oc2nc(N3CCCC3)c(Cl)c3c2N(CC2CCCO2)CCS3(=O)=O)cc1 (stereo not given)
 : i, -0.63
70: O=C(NCCc1nc2cccnc2n1-c1ccccc1)Nc1ccc(Cl)cc1
 : i, 1.29
71: CN(Cc1ccccc1)C(=O)c1nc(N2CCCC2)c2oc3ccccc3c2n1
 : i, 0.28
72: O=C(NC1CCCC1)c1cccc(Nc2cc(-c3ccccc3)ncn2)c1
 : i, 0.13
73: COc1ccc(OCc2cc(=O)n3nc(C)sc3n2)cc1
 : i, -0.14
74: O=S(=O)(c1ccccc1F)N1CCN(c2ncnc3c2nnn3-c2cccc(F)c2)CC1
 : i, -0.62
75: Cc1c(C(=O)Nc2ccc(F)cc2F)sc2nc3n(c(=O)c12)CCCCC3
 : i, -0.34
76: O=C(C1CCN(c2nnc(N3CCCC3=O)s2)CC1)N1CCC(Cc2ccccc2)CC1
 : i, -0.34
77: O=C(Nc1ccc(Br)cc1)c1nc(-c2ccccc2)n(-c2ccccc2)n1
 : i, 0.91
78: CCOCCCNC(=O)C1CCCN(S(=O)(=O)N2CC(C)CC(C)C2)C1 (stereo not given)
 : i, -0.16
79: O=C(Nc1ccc(N2CCN(c3ccccc3Cl)CC2)c(C(=O)O)c1)c1ccc(F)cc1
 : i, -0.86
80: COc1ccc(NC(=O)CN2CCN(Cc3ccc(F)cc3Cl)S2(=O)=O)cc1Cl
 : i, 0.37
81: Cc1ccc(Cl)cc1NC(=O)c1ccc(NC(=O)N2CCSc3ncccc32)cc1
 : i, -0.59
82: CC1CCCN(CC2CCN(S(=O)(=O)c3ccc(C#N)cc3)CC2)C1 (stereo not given)
 : i, 0.56
83: CCN(CC)S(=O)(=O)c1ccc(NC(=O)N2CCCC(C(=O)Nc3cccc(C)c3)C2)s1 (stereo not given)
 : i, -0.93
84: O=Nc1c(-c2c(O)[nH]c3ccccc23)[nH]c2ccccc12
 : i, 1.4&1.14&0.77
85: Cc1ccc(CN2CCCCCC2c2cccs2)s1 (stereo not given)
 : i, 0.96
86: CC1c2ccccc2CN1CC1=NCCN1 (stereo not given)
 : i, 0.45
87: CC(C)(C)c1ccc(S(=O)(=O)Nc2ccc(-c3nnc(-c4ccccc4)o3)cc2)cc1
 : i, -0.33
88: CN(C)c1nc(Nc2ccc(F)cc2)c2cnn(-c3ccccc3)c2n1
 : i, 1.06
89: c1ccc(-c2cn(-c3ccccc3)c3ncnc(NC4CC4)c23)cc1
 : i, 1.31
90: CN1CCCc2cc(C(=O)NCc3cccs3)sc21
 : i, 1.04

The listing continues:
The line under a structure holds: Choline anaer gr, Choline anaer gr early
91: Cc1cc(NC2CCCC2)n2nc(-c3ccc(Cl)cc3)c(C)c2n1
 : i, 1.47
92: Cn1c(SCc2ccc(Cl)cc2)nnc1-c1ccc2c(c1)OCCCO2
 : i, 0.29
93: Cc1nn(-c2ccccc2)c2c1N(CCCC(=O)NCc1ccccn1)C(=O)CS2
 : i, 0.15
94: Cc1ccc(-c2cc(C(F)(F)F)on2)cc1S(=O)(=O)N1CCC(C)CC1
 : i, 0.18
95: Cc1sc(-c2nc(C(C)C)cs2)cc1S(=O)(=O)N1CCN(c2ccccc2)CC1
 : i, -0.32
96: Cc1cccc2c1Oc1nc(-c3ccccc3)nc(SCC(=O)Nc3ccc4c(c3)OCCO4)c1C2
 : i, 0.92
97: Cc1cc(C)c2c3c(sc2n1)C(=O)N(Cc1ccccc1)CN3
 : i, 0.01
98: CCCN1CCN(CC(O)c2ccc3c(c2)CCN3C(C)=O)CC1 (stereo not given)
 : i, -0.38
99: COCC(=O)N1CC(OCc2ccc(Cl)cc2)C1
 : i, -1.36
100: CC(=O)Nc1ccc(-c2nnc3n2CCCCC3)cc1
 : i, 0.07
101: O=C(Nc1ccc2[nH]c(=O)oc2c1)c1ccc(F)cc1
 : i, 0.76
102: Cc1ccccc1-c1noc(N2CCC(C(=O)N3CCCCC3)CC2)n1
 : i, -0.19
103: CCN1CCN(c2ccc(N3CCCC(C(=O)N4CCN(c5cccc(Cl)c5)CC4)C3)nn2)CC1 (stereo not given)
 : i, 0.3
104: Cc1cc(C(=O)NCCN2CCOCC2)c2c(=O)n(C)c(=O)n(C)c2n1
 : i, 0.16
105: COCCCNC(=O)N1CCCC1c1cc(C)no1 (stereo not given)
 : i, -0.4
106: C=CCN(Cc1nc(-c2ccc(C)cc2)no1)C(=O)Nc1cccc(C)c1
 : i, 1.18
107: Nc1nc2c(c(=O)[nH]1)C(c1cccc(F)c1)CC(=O)N2 (stereo not given)
 : i, 1.23
108: CCCCN(C)C(=O)c1ccc(N2CCNCC2)c(NS(=O)(=O)c2ccc(F)cc2)c1
 : i, 0.16
109: NC(=O)N/N=C/c1ccc([N+](=O)[O-])o1
 : i, -1.6
110: CCOc1ccccc1C(=O)NCC(c1ccc(N(C)C)cc1)N(C)C (stereo not given)
 : i, 0.35
111: CC[C@]1(O)C[C@H]2CN(CCc3c([nH]c4ccccc34)[C@@](C(=O)OC)(c3cc4c(cc3OC)N(C)[C@H]3[C@@](O)(C(N)=O)[C@H](O)[C@]5(CC)C=CCN6CC[C@]43[C@@H]65)C2)C1
 : i, 0.57
112: COc1ccc(CNC(=O)CN(C)c2nnc(N3CCCC3=O)s2)cc1
 : i, -1.19
113: COc1ccccc1-c1nn2c(-c3ccccn3)nnc2s1
 : i, -1.52
114: Cc1cc(-c2nc(-c3ccccc3)no2)n[nH]1
 : i, -2.6
115: CCC(C(=O)Nc1cccc(OC)c1)n1c(SCc2ccc(F)cc2)nc2cccnc21 (stereo not given)
 : i, 1.08
116: Cc1ccc2c(=O)cc(C(=O)Nc3cccnc3)oc2c1C
 : i, 0.43
117: O=C(COc1ccccc1)Nc1ccc2oc(-c3ccccc3F)nc2c1
 : i, 0.38
118: Cc1nc2nc(CN(c3ccccc3)S(=O)(=O)c3ccccc3)nn2c(C)c1Cl
 : i, 0.05

These rows are one share of the data; count on the stated rates, not on these rows.
